Vif TR-FRET: HIV-1 Vif–A3G interaction blockers – biochemical, TR-FRET, GST-Vif 1-94, biotin-A3G peptide, dose response retest, primary screen (AID 1117319); TR-FRET GST-Vif / biotin-A3G peptide binding; higher % means a stronger effect; test concentration not given here; strong numbers were not always called active; inhibition, %; hits with a dose series show IC50 in µM; 0.57% of 260,000 active;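 active = above the screen mean plus three standard deviations and confirmed in dose response; inconclusive = results disagree or hit not tested in dose response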;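 also: Vif residues 1-94 fused to GST binding biotinylated APOBEC3G peptide 110-148; 0% = full assay without inhibitor and 100% = GST in place of GST-Vif; retest series ran down from 100 µM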
LANA-H2A inh: blocks KSHV LANA binding to histone H2A/H2B | cell-free LANA-H2A/H2B peptide, fluorescence polarization | inhibition, % (no concentration beside the values) | 0.6% of 320,000 active | AID 2629; in the data active = inhibition mostly above about 10%, no sharp cut-off; inactive = mostly below about 6.7%;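 also: stock transfer was 7.5 nL into about 10 µL; 0% = median of vehicle wells and 100% = median of positive control wells; one replicate is shown; the record names a cut of 25% in any replicate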
Calb FLC: affects C. albicans growth with fluconazole | C. albicans CaCi-2 (fluconazole-resistant clinical isolate) + fluconazole, Alamar Blue growth, 48 h | growth inhibition, % (concentration not given with the values) | 0.57% of 300,000 active | AID 1979;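 active = most replicates above 75%; inconclusive = exactly half above 75%; inactive = most below 75%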;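 also: all wells also contain fluconazole at 8 µg/ml as a sub-toxic cotreatment; 0% = median of DMSO wells and 100% = median of geldanamycin control wells; wells of about 8 µL received 7.5 nL stock; the first replicate is given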
B2AR ag: agonists of human beta-2 adrenergic receptor inducing internalization; P07550; Am2.2-beta2AR cells, FAP receptor internalization, flow cytometry; reference of the scale not given here; response, % (no concentration beside the values); 0.43% of 340,000 active; AID 504454;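 active = response above a set limit, near 3 SD of response in nonfluorescent compounds, cut at about 42% in these data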;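 also: stock transfer was 100 nL into about 11 µL; a reference agonist was the positive control; negative values mostly stem from fluorescent compounds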
Target sequence (P07550 whole entry, looked up): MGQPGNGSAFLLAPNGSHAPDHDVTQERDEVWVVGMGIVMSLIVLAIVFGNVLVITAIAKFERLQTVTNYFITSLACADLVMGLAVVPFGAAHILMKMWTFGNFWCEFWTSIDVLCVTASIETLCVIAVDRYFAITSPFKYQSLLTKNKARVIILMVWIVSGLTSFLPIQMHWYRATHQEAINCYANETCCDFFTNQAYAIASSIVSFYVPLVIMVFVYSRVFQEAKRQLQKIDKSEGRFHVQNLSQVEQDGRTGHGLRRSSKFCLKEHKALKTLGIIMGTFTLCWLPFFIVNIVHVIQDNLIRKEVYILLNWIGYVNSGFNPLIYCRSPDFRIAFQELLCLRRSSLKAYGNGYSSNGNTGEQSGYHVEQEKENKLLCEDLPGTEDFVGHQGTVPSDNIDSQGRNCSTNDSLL
HNF4A DNA FP: change in binding of human HNF4 alpha to DNA | activity change, % at 10 µM | AID 1224865 | 0.3% of 360,000 active | P41235 | HNF4a-FITC DNA binding, fluorescence polarization, 1 h; in the data active = activity change above about 30%, passing the limit was not always enough;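 also: controls were the assay level and a saturating level of protein; the project sought stronger binding though the title names inhibitors; some compounds called inactive have numbers as strong as hits; positive values seem to mean higher polarization but the record does not say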
Target sequence (P41235 whole entry, looked up): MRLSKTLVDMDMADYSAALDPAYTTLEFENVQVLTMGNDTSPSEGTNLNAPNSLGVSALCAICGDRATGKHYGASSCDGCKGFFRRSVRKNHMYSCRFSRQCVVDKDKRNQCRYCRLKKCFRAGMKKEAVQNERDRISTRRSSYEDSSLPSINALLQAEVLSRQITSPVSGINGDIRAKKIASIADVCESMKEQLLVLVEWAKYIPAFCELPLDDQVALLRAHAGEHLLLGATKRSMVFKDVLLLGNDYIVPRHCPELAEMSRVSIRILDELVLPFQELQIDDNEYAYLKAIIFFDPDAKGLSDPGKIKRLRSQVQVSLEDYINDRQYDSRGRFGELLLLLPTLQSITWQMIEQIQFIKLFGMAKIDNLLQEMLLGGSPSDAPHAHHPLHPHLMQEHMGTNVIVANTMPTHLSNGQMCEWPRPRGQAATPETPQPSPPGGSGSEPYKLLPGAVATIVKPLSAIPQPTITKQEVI
RanGTP-Impb inh: disruptors of Ran-importin-beta complex formation – biochemical, FRET, CFP-Ran, YFP-importin-beta, homogeneous, primary screen | cell-free CFP-Ran/YFP-importin-beta FRET ratio | inhibition, % (no concentration beside the values) | 1.1% of 300,000 active | AID 2216;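 active = most replicates above 15%; inconclusive = exactly half above 15%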;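 also: 0% = DMSO wells and 100% = Ran loaded with GDP instead of GTP; wells of about 40 µL received 100 nL stock; the first replicate is given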
ALR inh: inhibitors of human sulfhydryl oxidase ALR; P55789; purified ALR, DTT oxidation, H2O2 HRP-luminol luminescence; inhibition, % (test concentration not listed); 3.8% of 290,000 active; AID 485317;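 active = mean and each replicate at 75% or more; inconclusive = only one of the two met; inactive = neither met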;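 also: stock transfer was 7.5 nL into about 7.5 µL; 0% = neutral wells and 100% = wells with inactivated enzyme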
Target sequence (P55789 whole entry, looked up): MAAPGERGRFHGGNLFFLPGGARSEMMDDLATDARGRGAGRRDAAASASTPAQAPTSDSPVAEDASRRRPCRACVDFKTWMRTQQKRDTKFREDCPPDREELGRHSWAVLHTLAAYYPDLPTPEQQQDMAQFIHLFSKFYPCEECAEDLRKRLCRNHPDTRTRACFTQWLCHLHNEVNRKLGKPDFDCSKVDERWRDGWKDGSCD
Numbers without * were called inactive.

Results for CC(C)OCCCNc1ncnc2c1[nH]c1ccccc12 ?
Vif TR-FRET: -6%; LANA-H2A inh: -3.0; Calb FLC: 6; B2AR ag: -4; HNF4A DNA FP: -0.8; RanGTP-Impb inh: 1.2; ALR inh: -11

Results for CCOc1ccccc1CN1CCNC(=O)C1CC(=O)NCCN1CCOC1=O (centres undefined) ?
LANA-H2A inh: -4.1; Calb FLC: -8; B2AR ag: 3; HNF4A DNA FP: 0.8; RanGTP-Impb inh: -3.9; ALR inh: -7

How did Cc1ccc(N2C(=O)C3CCC(c4ccccc4)CC3C2=O)cc1 (centres undefined) do in these assays?
Vif TR-FRET: 0%; LANA-H2A inh: -0.4; Calb FLC: 34; B2AR ag: 6; HNF4A DNA FP: -0.2; RanGTP-Impb inh: -1.1; ALR inh: 0

What do the screens show for `COc1cccc(C2=NNC(=NCc3ccccc3)SC2)c1`?
Vif TR-FRET: inconclusive; LANA-H2A inh: -0.3; Calb FLC: 16; B2AR ag: 0; HNF4A DNA FP: -0.5; RanGTP-Impb inh: 0.1; ALR inh: -6

How did O=C(N/N=C/c1cccs1)c1cc(C2CC2)nc2ccccc12 do in these assays?
LANA-H2A inh: -2.2; Calb FLC: 4; B2AR ag: -15; HNF4A DNA FP: 3.6; RanGTP-Impb inh: 0.8; ALR inh: 1

What do the screens show for `O=C(NC(Cc1ccccc1)C(=O)NC(Cc1ccccc1)C(=O)O)c1ccccc1` (centres undefined)?
Vif TR-FRET: -6%; LANA-H2A inh: -0.4; Calb FLC: -1; B2AR ag: -5; HNF4A DNA FP: -1.3; RanGTP-Impb inh: 2.2; ALR inh: 1

What do the screens show for `CCOC(=O)c1c(NC(=O)Nc2ccc(C)cc2)sc2c1CCN(C)C2`?
Vif TR-FRET: 10%; LANA-H2A inh: -10.0; Calb FLC: -28; B2AR ag: 11; HNF4A DNA FP: 4.9; RanGTP-Impb inh: 8.6; ALR inh: 6

How did COc1ccccc1Cn1c(SCC(N)=O)nc2c(oc3ccccc32)c1=O do in these assays?
Vif TR-FRET: 4%; B2AR ag: -9; HNF4A DNA FP: -1.8

How did O=C1Nc2ccccc2C(=O)N2[C@H](c3ccccc3)[C@@H]3C(=O)N(Cc4ccccc4)C(=O)[C@@H]3[C@H]12 do in these assays?
LANA-H2A inh: -13; Calb FLC: -23; B2AR ag: 2; HNF4A DNA FP: -1.2; RanGTP-Impb inh: -3.1; ALR inh: 4

What do the screens show for `CCOC(=O)CN1CC23C=CC(O2)C(C(=O)O)C3C1=O` (centres undefined)?
Vif TR-FRET: -1%; LANA-H2A inh: -0.8; Calb FLC: -2; B2AR ag: 1; HNF4A DNA FP: 0.5; RanGTP-Impb inh: -1.3; ALR inh: -9

Results for CC(=O)C12OC1CC1C3CCC4=CC(=O)CCC4(C)C3CCC12C (centres undefined) ?
LANA-H2A inh: -2.8; Calb FLC: -26; B2AR ag: 18; HNF4A DNA FP: 1.4; RanGTP-Impb inh: -3.7; ALR inh: -11

What do the screens show for `Cc1ccc(C(=O)CSc2ccc(-c3ccncc3)nn2)cc1`?
Vif TR-FRET: 3%; LANA-H2A inh: -3.0; Calb FLC: 3; B2AR ag: -2; HNF4A DNA FP: 5.1; RanGTP-Impb inh: -1.1; ALR inh: 9

Results for O=C(Nc1nnc(C2CC2)s1)c1cc(-c2ccccc2)nn1-c1ccccc1 ?
Vif TR-FRET: 1%; Calb FLC: 55; B2AR ag: 11; HNF4A DNA FP: 1.1; RanGTP-Impb inh: -1.6

What do the screens show for `Cc1cc(NS(=O)(=O)c2ccc(NC(=O)CSc3nc4sc(C)c(C)c4c(=O)[nH]3)cc2)no1`?
Vif TR-FRET: 4%; LANA-H2A inh: -3.2; Calb FLC: 8; B2AR ag: 2; HNF4A DNA FP: 2.5; RanGTP-Impb inh: -0.3; ALR inh: 5

Results for O=[N+]([O-])c1cc(S(=O)(=O)N2CCOCC2)ccc1OCc1ccccc1C(F)(F)F ?
Vif TR-FRET: 9%; B2AR ag: -9; HNF4A DNA FP: 0.7

What do the screens show for `Cc1cc2nc(/N=C(\N)NC(=O)C(C)C)nc(C)c2cc1C`?
Vif TR-FRET: -1%; LANA-H2A inh: 6.1; Calb FLC: -10; B2AR ag: -11; HNF4A DNA FP: 0.7; RanGTP-Impb inh: 8.4; ALR inh: 1

What do the screens show for `Cc1nc(C(=O)Nc2cccc(Cl)c2Cl)nn1-c1cc(OC(C)C)c(Cl)cc1Cl`?
Vif TR-FRET: 8%; LANA-H2A inh: -4.4; Calb FLC: 32; B2AR ag: 5; HNF4A DNA FP: -0.2; RanGTP-Impb inh: 0.9; ALR inh: 0

Results for COc1ccc2c(c1)c(N=NC(N)=S)c(O)n2CC(=O)c1ccccc1 ?
Vif TR-FRET: -3%; LANA-H2A inh: 0.4; Calb FLC: -8; B2AR ag: 1; HNF4A DNA FP: -0.3; RanGTP-Impb inh: 0.4

Results for O=C(CCNc1ccc(F)c(Cl)c1)c1ccco1 ?
Vif TR-FRET: inconclusive; LANA-H2A inh: 0.9; Calb FLC: 3; B2AR ag: 12; HNF4A DNA FP: -1.9; RanGTP-Impb inh: 2.3; ALR inh: 18

Results for COc1ccc(C(=O)N=c2sc3c(C)ccc(OC)c3n2C)cc1 ?
Vif TR-FRET: 2%; LANA-H2A inh: 0.7; Calb FLC: 0; B2AR ag: -14; HNF4A DNA FP: 0.0; RanGTP-Impb inh: -1.6; ALR inh: -21

How did CCOc1ccc(S(=O)(=O)NCC2CCCO2)c2cccnc12 (centres undefined) do in these assays?
Vif TR-FRET: -4%; LANA-H2A inh: -5.1; Calb FLC: 5; B2AR ag: -29; HNF4A DNA FP: -1.0; RanGTP-Impb inh: -0.8; ALR inh: -7

What do the screens show for `Cc1cc(C(=O)N/N=C/c2cccs2)n[nH]1`?
Vif TR-FRET: 9%; LANA-H2A inh: 2.3; Calb FLC: -15; B2AR ag: -1; HNF4A DNA FP: 0.8; RanGTP-Impb inh: 1.0; ALR inh: -10

How did c1ccc(-c2nc(-c3ccccn3)no2)cc1 do in these assays?
LANA-H2A inh: 2.1; Calb FLC: -6; B2AR ag: -8; HNF4A DNA FP: -3.9; RanGTP-Impb inh: 1.6; ALR inh: -2

How did CNC(=O)c1sc(SC)cc1-c1ccc(Cl)cc1 do in these assays?
Vif TR-FRET: 0%; LANA-H2A inh: 6.3; Calb FLC: -3; B2AR ag: -5; HNF4A DNA FP: 1.9; RanGTP-Impb inh: 4.6; ALR inh: -2

Results for Cn1ncc2c(Nc3cccc4ccccc34)ncnc21 ?
Vif TR-FRET: inconclusive; LANA-H2A inh: 1.8; Calb FLC: -2; B2AR ag: 8; HNF4A DNA FP: -2.3; RanGTP-Impb inh: -2.0; ALR inh: -17

What do the screens show for `CCc1ccccc1NC(=O)CN(C)Cc1nc(N)nc(Nc2ccccc2C)n1`?
Vif TR-FRET: -9%; LANA-H2A inh: 0.2; Calb FLC: 29; B2AR ag: -4; HNF4A DNA FP: -0.2; RanGTP-Impb inh: -5.0; ALR inh: -3

Results for CCOC(=O)c1cc(C(C)(C)C)oc1CNC(=O)c1c(C)oc2c1CCCC2 ?
Vif TR-FRET: -1%; LANA-H2A inh: -1.3; Calb FLC: -22; B2AR ag: -10; HNF4A DNA FP: 0.9; RanGTP-Impb inh: 1.8; ALR inh: 1

What do the screens show for `C/C(=N\O)C(=O)NCc1ccccn1`?
Vif TR-FRET: 78µM*; LANA-H2A inh: -2.5; Calb FLC: -16; B2AR ag: -5; HNF4A DNA FP: 0.4; RanGTP-Impb inh: 21; ALR inh: -3

Results for COC(=O)Cc1cc(=O)n2[nH]c(C)c(-c3ccccc3)c2n1 ?
Vif TR-FRET: 4%; LANA-H2A inh: 1.9; Calb FLC: 1; B2AR ag: -5; HNF4A DNA FP: -2.3; RanGTP-Impb inh: -1.8; ALR inh: 48

How did Cc1ccc(C)c(N2CCN(C(=O)CCS(=O)(=O)c3cccc4nonc34)CC2)c1 do in these assays?
Vif TR-FRET: 14%; LANA-H2A inh: -5.7; Calb FLC: 7; B2AR ag: 11; HNF4A DNA FP: 0.8; RanGTP-Impb inh: 0.9; ALR inh: -10

How did CCOc1ccc2c(C)c(C)c(=O)oc2c1OCC do in these assays?
Vif TR-FRET: -2%; LANA-H2A inh: 1.9; Calb FLC: 5; B2AR ag: -6; HNF4A DNA FP: 4.0; RanGTP-Impb inh: 0.7; ALR inh: -5

Results for CC1=C(C(=O)Nc2cc(-c3cccc(F)c3)[nH]n2)C2(CCCCC2)OC1=O ?
Vif TR-FRET: 0%; LANA-H2A inh: -2.4; Calb FLC: 36; B2AR ag: 0; HNF4A DNA FP: -8.7; RanGTP-Impb inh: 1.1; ALR inh: 86*

How did Cc1nc(SCC(=O)NCc2cccs2)nc(C)c1C do in these assays?
Vif TR-FRET: 0%; LANA-H2A inh: 0.5; Calb FLC: -5; B2AR ag: 4; HNF4A DNA FP: 0.5; RanGTP-Impb inh: -0.8; ALR inh: -3

Results for CC1CN(c2ccc([N+](=O)[O-])c(NCCOc3ccc(Cl)cc3)c2)CC(C)N1 (centres undefined) ?
LANA-H2A inh: -1.6; Calb FLC: -5; B2AR ag: 18; HNF4A DNA FP: 1.2; RanGTP-Impb inh: -3.1; ALR inh: -10

What do the screens show for `CCOC(=O)CSc1nc(C)c2cc(OC)ccc2n1`?
Vif TR-FRET: -1%; LANA-H2A inh: -0.2; Calb FLC: -1; B2AR ag: 8; HNF4A DNA FP: -1.2; RanGTP-Impb inh: 4.9; ALR inh: -6

How did O=C(NCc1ccccc1Cl)c1ccc(CS(=O)Cc2ccc(Cl)cc2)o1 (centres undefined) do in these assays?
Vif TR-FRET: -10%; LANA-H2A inh: -2.8; Calb FLC: 6; B2AR ag: -3; HNF4A DNA FP: 3.2; RanGTP-Impb inh: -0.6; ALR inh: 1

What do the screens show for `COc1cccc(/C=C2\SC(=O)N(CC(=O)NC3C=CS(=O)(=O)C3)C2=O)c1` (centres undefined)?
Vif TR-FRET: -7%; LANA-H2A inh: 1.5; Calb FLC: 0; B2AR ag: 10; HNF4A DNA FP: -3.6; RanGTP-Impb inh: 3.7; ALR inh: 42

What do the screens show for `Cc1ccc(/C=C/C(=O)NC2CCCCCCC2)o1`?
Vif TR-FRET: 11%; LANA-H2A inh: -1.4; Calb FLC: -7; B2AR ag: 6; HNF4A DNA FP: 5.5; RanGTP-Impb inh: 0.0; ALR inh: 99*

How did Cc1c(N=Cc2cc3c(cc2Cl)OCO3)c(=O)n(-c2ccccc2)n1C do in these assays?
Vif TR-FRET: -1%; LANA-H2A inh: -8.0; Calb FLC: -2; B2AR ag: 1; HNF4A DNA FP: 12; RanGTP-Impb inh: 8.0; ALR inh: 2

What do the screens show for `COc1ccc(Oc2c(C)oc3c(CN(C)C)c(O)ccc3c2=O)cc1`?
Vif TR-FRET: inconclusive; LANA-H2A inh: 4.8; Calb FLC: -14; B2AR ag: 5; HNF4A DNA FP: 2.3; RanGTP-Impb inh: -5.9; ALR inh: -9

How did O=C(CN1C(=O)NC(c2ccccc2)(c2ccccc2)C1=O)N1CCCCC1 do in these assays?
LANA-H2A inh: -2.4; B2AR ag: 11; HNF4A DNA FP: -0.3; ALR inh: -6

Reprinted at random: two compounds from above, in no set order.
How did Cc1ccc(C)c(N2CCN(C(=O)CCS(=O)(=O)c3cccc4nonc34)CC2)c1 do in these assays?
Vif TR-FRET: 14%; LANA-H2A inh: -5.7; Calb FLC: 7; B2AR ag: 11; HNF4A DNA FP: 0.8; RanGTP-Impb inh: 0.9; ALR inh: -10

Results for Cn1ncc2c(Nc3cccc4ccccc34)ncnc21 ?
Vif TR-FRET: inconclusive; LANA-H2A inh: 1.8; Calb FLC: -2; B2AR ag: 8; HNF4A DNA FP: -2.3; RanGTP-Impb inh: -2.0; ALR inh: -17

Assay outcomes: PubChem BioAssay, several laboratories

The order is random, and some 6.3% of all compounds hit somewhere here.
